Screening results from PubChem.
AID504770: E. coli YBA685 growth inhibition, screen for V. cholerae RctB inhibitors; z-score (test concentration not listed); E. coli YBA685 rctB-dependent plasmid, OD600 growth, 3 h; hits give low values; actives 0.27% (n = 130,000); AID 504770;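 active means z-score under -2 on both plates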;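 further: wells of about 30 µL received 100 nL stock; score is relative to mean and SD of the test wells; the first replicate is given; strong numbers were not always called active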
Ba CapD inh: blocks the Bacillus anthracis CapD enzyme | z-score (concentration not given with the values) | purified CapD enzyme, fluorescence intensity read-out; hits give low values; some hits fall short of the stated cut | actives 0.23% (n = 140,000) | AID 492967;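 active means z-score under -4 in either of two replicates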;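 further: stock transfer was 100 nL into about 40 µL; score is relative to mean and spread of the plate; one replicate is shown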
Active calls of the source: *; nt = not tested or not shown; & = joins results of further samples.

Molecule | AID504770 | Ba CapD inh
Cc1ccc(N=C2NC(=O)C(Cc3ccc(Cl)cc3)S2)cc1 (centres undefined) | nt | 0.01
FC(F)(F)c1ccnc(N2CCOCC2)n1 | -0.55 | -0.69
O=C1C(=Cc2ccco2)C(=O)c2ccccc21 | -0.1 | -0.12
O=C(C(c1ccccc1)N1Cc2ccccc2C1=O)N1CCN(c2ccccc2F)CC1 (centres undefined) | 0.15 | -0.42
Cc1ccc2nc(-c3ccc(-n4ccc(=O)cc4)cc3)sc2c1 | -0.45 | 92
CC(C)C1Oc2ccccc2N(CC(=O)N(CCCN2CCOCC2)Cc2ccc(F)cc2)C1=O (centres undefined) | 1.1 | nt
C=CCn1c(SCC(=O)NCc2ccc(F)cc2)nc2ccccc21 | 0.4 | nt
COc1cc(OC)nc(C(=O)c2ccc(Cl)cc2)n1 | 1.6 | -0.32
CCOCCn1cnc2sc(C(=O)N(C)C3CCCCC3)c(C)c2c1=O | nt | 6.2
Cc1ccc(S(=O)(=O)/N=C2\C=CC(=O)c3ccccc32)c(C)c1 | -0.4 | -0.17
Cc1cc(Cl)ccc1OCC(=O)N/N=C/c1ccc(OC2OC(CO)C(O)C(O)C2O)cc1 (centres undefined) | 2.1 | 0.02
CCc1ccccc1N(C)S(=O)(=O)c1ccc(-c2cc(C)no2)s1 | -0.1 | 0.04
C=CCn1sc(N)c(C(=O)OCC)c1=S | -0.15 | nt
CCOC(=O)C(N)Cc1ccccc1 (centres undefined) | 0.7 | 0.92
N#Cc1cc(I)c(C#N)c(I)c1 | nt | 0.3
O=C(c1ccccc1)N1c2ccccc2N=C(c2ccccc2)CC1c1ccccc1 (centres undefined) | nt | -0.24

The final 7 compounds of the section before are carried over, then new ones follow.
Molecule | AID504770 | Ba CapD inh
Cc1ccc(S(=O)(=O)/N=C2\C=CC(=O)c3ccccc32)c(C)c1 | -0.4 | -0.17
Cc1cc(Cl)ccc1OCC(=O)N/N=C/c1ccc(OC2OC(CO)C(O)C(O)C2O)cc1 (centres undefined) | 2.1 | 0.02
CCc1ccccc1N(C)S(=O)(=O)c1ccc(-c2cc(C)no2)s1 | -0.1 | 0.04
C=CCn1sc(N)c(C(=O)OCC)c1=S | -0.15 | nt
CCOC(=O)C(N)Cc1ccccc1 (centres undefined) | 0.7 | 0.92
N#Cc1cc(I)c(C#N)c(I)c1 | nt | 0.3
O=C(c1ccccc1)N1c2ccccc2N=C(c2ccccc2)CC1c1ccccc1 (centres undefined) | nt | -0.24
C(=N\n1c(-c2cc3ccccc3o2)csc1=NCC1CCCO1)/c1ccc2c(c1)OCCO2 (centres undefined) | -1.9 | nt
Oc1ccc2oc3c(c2c1C=Nc1ccccc1)CCCC3 | 0.5 | nt
N#Cc1ccccc1Sc1ccccc1C(=O)NN1C(=O)NC2(CCCCC2)C1=O | 0.65 | nt
c1ccc(C2NCCc3sccc32)cc1 (centres undefined) | -0.35 | nt
CCOC(=O)c1ccc(Oc2nc(N(C)C)nc(N(C)C)n2)cc1 | nt | 0.35
Cn1ccnc1C(N)c1ccccc1 (centres undefined) | 1.2 | nt
O=C(Nc1cccc(NC(=O)c2cccc(S(=O)(=O)N3CCCCC3)c2)c1)c1ccc([N+](=O)[O-])cc1 | nt | -0.065
NNC(=O)/C(=C/c1ccccc1)NC(=O)c1ccccc1 | -0.15 | 0.42
CCOc1ccc(CC2S/C(=N\c3ccccn3)NC2=O)cc1 (centres undefined) | nt | -0.01
OCCNc1nc2ccccc2n1CCOc1ccccc1 | -0.85 | nt
Cc1cc(C(=O)NNC(=O)OCCCc2ccccc2)n[nH]1 | nt | 0.29
CN(CC(O)COc1ccc2oc3ccccc3c2c1)C1CCCCC1 (centres undefined) | 0.8 | -0.11
CCOC(=O)C(O)(c1cn(C)c2ccccc12)C(F)(F)F (centres undefined) | -0.6 | 0.39
O=C1NC(=O)N2CCCC12 (centres undefined) | 0.45 | nt
COc1ccc(CCNC(=O)CSc2nc3ccccc3c(=O)n2NC(=O)c2cccs2)cc1OC | nt | 0.12
COCCNC(=O)CN1CCc2ccccc2C1 | 0.5 | nt
Cc1cc(S(=O)(=O)NCC2CC2)c(Cl)cc1Cl | nt | -0.045
O=C(OCC(=O)N1CCc2ccccc2C1)c1ccccc1 | -0.45 | nt
CCCSc1nnc(CNC(=O)c2cccc(F)c2)n1-c1ccc(F)cc1 | -1.1 | -0.27
C/C=C(\C)CN1CCN(c2ccccc2)CC1 | -0.6 | 0.22
Cc1cccc(C)c1NC(=O)C1(N(Cc2ccccc2)C(=O)c2ccc(-n3cnnn3)cc2)CCCC1 | -0.2 | 0.26
N#Cc1ccc(OCC(=O)N2CCSc3ccccc32)cc1 | 0 | nt
O=C(Nc1nccs1)c1ccc(Br)c(S(=O)(=O)N2CCOCC2)c1 | nt | -0.84
NCCCc1ccccn1 | -0.35 | nt
CN(C(=O)Cc1noc2ccccc12)c1cccc(C(F)(F)F)c1 | -0.05 | -0.35
COC(=O)CCNc1ccccn1 | 0.3 | 5.2
CN1CCC(CNC(=O)Nc2csc3ccccc23)CC1 | -0.9 | -0.54
COc1ccc(CCn2c(=S)[nH]c3cc(C(=O)N4CCN(c5ccccc5)CC4)ccc3c2=O)cc1OC | nt | 0.3
N#CC1(C#N)C2c3ccccc3C=CN2[C@@H](C(=O)C23CC4CC(CC(C4)C2)C3)[C@@H]1c1ccc(Cl)c(Cl)c1 (some centres undefined) | nt | 1.6
Cc1c(C(N)=O)sc2nc[nH]c(=O)c12 | 0.15 | 9.6
COCCNC(=O)c1cc2nc3c(c(C(F)(F)F)n2n1)CCc1ccccc1-3 | 0.45 | nt
Cc1cc(Br)ccc1NC(=O)c1sc2ncn(CC(=O)Nc3cccc(C(F)(F)F)c3)c(=O)c2c1C | nt | 1.8
CC1(C)CC(=O)C2=C(C1)NC1=C(C(=O)CC(C)(C)C1)C2c1cccc(O)c1 | -1.6 | 16
C=CCN(C(=O)Cn1ncc2c(=O)oc3ccccc3c21)c1ccccc1 | 0.75 | -0.32
O=[N+]([O-])c1ccc(-c2ccc(-c3[nH]c(-c4ccccc4)nc3-c3ccccc3)cc2)cc1 | nt | 11
O=C(Nc1cc(C(F)(F)F)ccc1Cl)c1cc2cc([N+](=O)[O-])ccc2oc1=O | nt | -0.15
Clc1ccc(-c2nc3ccccc3n2OCc2ccccc2Cl)cc1 | nt | 0.54
COC(=O)c1c(C)oc2ccc(N(C(C)=O)S(=O)(=O)c3cccc([N+](=O)[O-])c3)cc12 | nt | -0.12
C=CCC1(O)C(=O)N2C(=C1C(=O)N1CCCC1)c1ccccc1CC2(C)C (centres undefined) | nt | 6
CCOC(=O)c1sc2ncnc(NC3CCCC(C)C3C)c2c1C (centres undefined) | nt | 56
COc1cc(OC)cc(C(=O)OCC(=O)c2cc3ccccc3o2)c1 | -0.8 | nt
Cc1ccc(Oc2ccccc2/C=N/NC(=O)c2ccc(C(F)(F)F)cc2)cc1 | nt | -0.12
O=C1c2ccccc2C(=O)N1Nc1ccc(N2CCOCC2)cc1 | 0.6 | 0.76
CC(C)NC(=O)c1cc(OCC(F)(F)F)ccc1OCC(F)(F)F | nt | -0.55
Cc1cc(=O)n(C)c(=O)n1CCN(C)C | 1.1 | -1
O=C(NCC(=O)N1CCN(c2ccccc2)CC1)c1ccccc1Br | nt | -0.035
O=C(c1ccc2nc3ccccc3c(=O)n2c1)N1CCN(c2ccc(Cl)cc2)CC1 | 0 | -0.015
CS(=O)(=O)c1ccc(-c2csc(-c3ccc(-c4csnn4)cc3)n2)cc1 | -0.4 | -0.71

2 of these compounds, reformatted.
mol: O=C(Nc1cccc(NC(=O)c2cccc(S(=O)(=O)N3CCCCC3)c2)c1)c1ccc([N+](=O)[O-])cc1
- AID504770: nt
- Ba CapD inh: -0.065
mol: NNC(=O)/C(=C/c1ccccc1)NC(=O)c1ccccc1
- AID504770: -0.15
- Ba CapD inh: 0.42

New compounds follow
Molecule | AID504770 | Ba CapD inh
C(#Cc1ccccc1)CN1CCN(C(c2ccccc2)c2ccccc2)CC1 | -0.3 | 0.38
COc1cccc(CNC(=O)C2CCN(S(=O)(=O)c3ccccc3)CC2)c1 | -1.1 | nt
CCOc1ccc(CNC(=O)C2CCN(c3nc4ccccc4n4c(C)nnc34)CC2)cc1OC | 0.5 | 3.2
CC(NC(=O)Cc1ccccc1)C(c1ccccc1)N1CCOCC1 (centres undefined) | -0.6 | nt
C=CCn1c(=S)sc2c(=O)n(CCOc3cccc(Br)c3)cnc21 | -0.6 | nt
Cc1ccc(NC(=O)CSc2nc3cc(C(=O)N4CCC(C(N)=O)CC4)ccc3c(=O)n2Cc2ccco2)cc1Cl | nt | 0.005
O=C(CN1C(=O)/C(=C2\SC(N3CCOCC3)=NC2=O)c2ccccc21)Nc1cccc(Cl)c1 | nt | -0.6
COc1ccccc1N=c1scc(-c2ccc(S(=O)(=O)N3CCOCC3)cc2)n1C | 0 | 0.59
CC(=O)/C=C(\C)Nc1ccccc1S | -1.2 | nt
CCN(CC)CCOc1ccc2c(c1)C(=O)c1cc(OCCN(CC)CC)ccc1-2 | 0.5 | 0.72&0.79
Cc1nnc(SCC#N)n1C | -0.05 | nt
O=C(Nc1ccc(-c2nc3cc(NC(=O)c4ccccc4[N+](=O)[O-])ccc3o2)cc1)c1ccccc1[N+](=O)[O-] | nt | -0.84
S=c1nc(Cc2cccs2)[nH]c2ccccc12 | 0.15 | nt
CCNc1nnc(-c2ccccc2)s1 | -0.35 | nt
Cc1ccc(-c2nnc(N3CCOCC3)c3ccccc23)cc1C | 0.7 | 0.085
O=C1OC(N2CCN(Cc3ccc4c(c3)OCO4)CC2)c2ccccc21 (centres undefined) | 1 | -0.01

Single entries from the list:
In Ba CapD inh, Cc1ccc(-c2nnc(N3CCOCC3)c3ccccc23)cc1C is listed with 0.085
In AID504770, CCN(CC)CCOc1ccc2c(c1)C(=O)c1cc(OCCN(CC)CC)ccc1-2 is listed with 0.5
In AID504770, CCNc1nnc(-c2ccccc2)s1 is listed with -0.35

Next part
Molecule | AID504770 | Ba CapD inh
COc1cccc(C(C)NS(=O)(=O)c2ccc(F)cc2F)c1 (centres undefined) | nt | -0.26
O=C(O)c1oc(C(=O)O)c(OCc2ccccc2)c1OCc1ccccc1 | -0.45 | 0.67
COc1ccc(Cc2nc3ccccc3[nH]2)cc1OC | -0.65 | -0.055
Cc1ccc(=O)n(Cc2ccccc2)n1 | -0.6 | 1.3
COc1cc(OC)c(NC(=O)CSc2nc3ccccc3n2S(=O)(=O)c2ccc(C)cc2)cc1Cl | nt | -0.35
O=C(/C=C/c1ccc2c(c1)OCO2)NC(=S)NC1CCCC1 | -0.2 | 6.2
CC1(C)CC(=O)C2=C(C1)c1c(ccc3ccccc13)NC2c1cn(Cc2ccccc2Cl)c2ccccc12 (centres undefined) | nt | 2.2
CC1(C)CC2CC(C)(CN2C(=O)CN2CCN(C/C=C/c3ccccc3)CC2)C1 (centres undefined) | -0.3 | nt
O=C(Cn1ncn2c(cc3ccccc32)c1=O)N1CCCCC1 | 1.4 | 13
CCN1CCc2nc(N/C=C/C(=O)C(F)(F)F)sc2C1 | -0.9 | nt
COc1ccc(Br)c(C(=O)Nn2c(-c3cccc(C)c3)nc3ccccc3c2=O)c1 | nt | -0.33
COc1ccccc1C(C1=C(OC(C)=O)COC1=O)c1cc2c(cc1OC(C)=O)OCO2 (centres undefined) | 0.1 | 0.21
Cc1c(Cl)cccc1NC(=O)n1ncc2c(C)cccc21 | -1.1 | 0.34
O=C(CS(=O)(=O)c1ccccc1)N(Cc1ccccn1)c1nc2ccccc2s1 | 1.7 | nt
COC(=O)C(C)N(C#N)c1nc(C)cc(C)n1 (centres undefined) | -0.2 | -0.77
O=S(=O)(c1ccccc1F)N1CCC(c2nc3ccccc3s2)CC1 | -0.35 | 0.085
O=C(CSc1nc2ccccc2c(=O)n1CC1CCC(C(=O)NCC2CCCO2)CC1)Nc1nccs1 (centres undefined) | nt | -0.29
COc1ccc(Oc2ncnc3c2cnn3-c2ccccc2)cc1 | 2.5 | nt
Cc1cc(/N=C\N(C)C)n2c(nc3ccccc32)c1C#N | -0.8 | 1.2
N#Cc1c(/N=C/c2cccnc2)sc2c1CCC2 | 0.1 | nt
O=C(O)COc1ccccc1/C=C1/SC(=S)N(c2cccnc2)C1=O | -0.1 | -4*
CCc1ccc(N2CC(C(=O)O)CC2=O)cc1 (centres undefined) | -0.85 | nt
O=C(c1cc(F)cc2c1OCOC2)N1CCN(c2ccc(F)cc2)CC1 | -1.1 | -0.4
Cc1ccc(OCC(=O)OCc2c(C)noc2C)cc1C | 1.3 | nt
CC(Oc1ccccc1C(=O)c1cc(C#N)c(=O)n(C2CCCCC2)c1)C(=O)N1CCOCC1 (centres undefined) | 3.1 | nt
O=C(O)C1CCC1C(=O)Nc1nnc(C2CC2)s1 (centres undefined) | 1.9 | 1.2
COCCNC(=O)CCC(=O)N1CCC(N(C2CC2)S(=O)(=O)c2ccc(Cl)cc2)CC1 | nt | -1.3
O=C(NCNC(=O)c1ccccc1)c1ccccc1 | -0.75 | 0.15
Cc1cc(N2C(=O)C3C4c5ccccc5C(c5ccccc54)C3C2=O)no1 (centres undefined) | -0.5 | 0.24
O=C(O)COc1ccc2c(-c3ccccc3)cc(=O)oc2c1 | -1.2 | 1.7
CCCC1Nc2ccc(C(=O)O)cc2C2C=CCC12 (centres undefined) | -0.25 | -2.3
CCCOc1ccc(C2C(C#N)=C(N)Oc3c2c(=O)oc2ccccc32)cc1OC (centres undefined) | nt | 0.55
CN(C)c1ccc(C(=O)N2CCCc3ccccc32)cc1 | -0.2 | 0.3
COc1ccc(C2=NC3(CCNCC3)NC2=S)cc1 | 0.85 | -1.6
COC(=O)c1cnn2c(C)c(Cc3ccc(C)cc3)c(C)nc12 | 0.85 | 108
CN(CCOC(=O)c1ccc2c(c1)OCCO2)C(C)(C)C | nt | 0.62
COc1ccccc1-c1c(C)nn2c(N3CCCC3)cc(C)nc12 | -0.65 | 2.9
CCOC(=O)c1ccccc1NC(=O)c1sc(NC(=O)c2ccc3c(c2)OCO3)c(C(=O)OCC)c1C | nt | -0.21
CCOC(=O)c1cccc(NC(=O)N2CCC(CN3CCCCC3)CC2)c1 | 0.2 | 0.29
